MT1-MMP act inh – blocks activation of human MT1-MMP. P50281. HT1080 RFP-PRO-GFP cells, GFP/RFP ratio fluorescence, overnight; percent of plate control window, DMSO zero. GFP/RFP ratio change, % at 20 µM. 360,000 tested, 0.061% active. AID 651647;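 active = GFP/RFP ratio change of at least 30% with cell ATP level not reduced by more than half and red fluorescence within 50% of control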; note: strong numbers were not always called active
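system = RFP-PRO-GFP reporter HT1080 cells | dosing = 20 µM single dose, 1% DMSO | timing = overnight cell settling, then overnight compound exposure, 37 °C, 5% CO2 | read-out basis = GFP/RFP fluorescence ratio | controls = DMSO and RFP-L50D-GFP cell wells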
HIV Env fusion – blocks HIV Env-driven cell-cell fusion | HeLa-JRFL Env/CEM21 cell fusion, luciferase | inhibition, % at 12.3 µM | 360,000 tested, 1.1% active | AID 651610;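 active = mean replicate inhibition score of at least 50 and every replicate individually at or above 50; inconclusive = only one of the two criteria met; inactive = mean below 50 and not all replicates reaching 50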;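 note: 0% = plate neutral controls and 100% = maraviroc near 300 nM; one replicate is shown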
Rce1 inh – yeast Ras-converting enzyme inhibition; yeast membranes, quenched prenylated peptide cleavage fluorescence; calls only; 290,000 tested, 0.27% active;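 active = fall in fluorescence gain of 50% or more versus controls, with final raw signal at or below 3038400; inconclusive = same 50% fall but final raw signal above 3038400; inactive = fall in fluorescence gain under 50%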;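 note: plate controls were neutral control wells for no effect and wells lacking membranes for full effect; tested at 10 µM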
Target sequence (Q03530 whole entry, looked up): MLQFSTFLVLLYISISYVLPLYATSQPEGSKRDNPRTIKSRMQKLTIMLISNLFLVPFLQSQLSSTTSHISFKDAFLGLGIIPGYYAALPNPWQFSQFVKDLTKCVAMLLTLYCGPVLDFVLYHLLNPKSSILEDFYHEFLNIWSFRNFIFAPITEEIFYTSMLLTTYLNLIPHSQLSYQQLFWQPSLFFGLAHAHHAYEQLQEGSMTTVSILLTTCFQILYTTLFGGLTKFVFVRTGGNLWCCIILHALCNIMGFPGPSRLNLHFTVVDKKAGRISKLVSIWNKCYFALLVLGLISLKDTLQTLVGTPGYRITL
PABP FP inh – PABP-poly(A) binding inhibition; 290,000 tested, 1% active; inhibition, % at 35 µM; PABP-poly(A) RNA binding, fluorescence polarization; P11940; AID 2014;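 active = 50% or more with normal probe brightness, or confirmed in later tests; inconclusive = above 50% with abnormal brightness, or retests that disagree; inactive = below 50% or failed in later tests; about a fifth of its hits are not listed in these tables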;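 note: calls also rest on retests at 20 µM and on dose response follow-up; controls were probe without protein and protein plus probe with vehicle; some compounds called inactive have numbers as strong as hits; many hits fall short of the cut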
eIF4H inh – inhibitors of RNA binding by human eIF4H | Q15056 | eIF4H fluorescence polarization binding assay | inhibition, % at 35 µM | 290,000 tested, 0.94% active | AID 2012;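 active = 50% or more with normal probe brightness, or confirmed in later tests; inconclusive = above 50% with abnormal brightness, or retests that disagree; inactive = below 50% or failed in later tests; about a fifth of its hits are not listed in these tables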;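 note: calls also rest on retests at 20 µM and on dose response follow-up; 0% = protein and probe with vehicle and 100% = probe without protein; strong numbers were not always called active; many hits fall short of the cut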
Yeast UUG start – yeast start codon fidelity modulation. S. cerevisiae UUG-firefly luciferase reporter, luminescence/redox ratio. activity score, % at 18.7 µM. 350,000 tested, 0.13% active. AID 602363;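 active = replicate mean at a twofold rise or more, about +100% in these data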;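 note: firefly luciferase made from a UUG start codon reports start codon fidelity; reporter light over untreated wells divided by growth signal over untreated wells; some hits fall short of that in this replicate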
CSC inhib – cancer stem cell inhibition | cancer stem cell-like cells viability, luminescence | inhibition, % at 7.5 µM | 300,000 tested, 1.1% active | AID 2717;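 active = mean at 75% or more and at least half the replicates too; inconclusive = mean and replicates disagree; tested in HMLE shEcad cells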;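 note: 0% = median of negative and 100% = median of positive control wells; the first replicate is given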
MT1-MMP act inh RFP – second read-out of MT1-MMP act inh, no call of its own (marks repeat the call); RFP signal change, %; measured here: RFP expression control read;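 0 = vehicle wells; hits needed this value within 50% of zero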
Active calls of the source: *; i = inactive; ? = inconclusive; · = no result given. An excerpt; rates above refer to the full screens.

SMILES	MT1-MMP act inh	MT1-MMP act inh RFP	HIV Env fusion	Rce1 inh	PABP FP inh	eIF4H inh	Yeast UUG start	CSC inhib
CCOCc1c(C(=O)N2CCN(Cc3ccc(Br)s3)CC2)oc2ccccc12	6	-2	3	·	·	·	-27	-4
CCN(CC)c1ccc(S(=O)(=O)N2CCOCC2)cc1NC(=O)COC(=O)/C=C/c1ccc(C)o1	1	-4	-17	i	·	·	-9	-1
CC(C)CN(C(=O)/C=C/c1nc2ccccc2s1)C1CCS(=O)(=O)C1 (stereo unspecified)	-3	2	·	i	·	·	-10	-13
O=C(CSc1nnc(CNc2ccc(F)cc2)n1Cc1ccco1)N1CCOCC1	-3	2	-42	i	4	6	-13	-5
CSC1=NCCN1C(=O)c1c(-c2c(F)cccc2Cl)noc1C	2	1	4	i	3	-6	-9	-6
COC(=O)c1cc(C)nc(Nc2nc(C(N)Cc3ccc(F)cc3)cs2)n1 (stereo unspecified)	0	1	18	·	·	·	-35	·
CN(C)Cc1c(O)ccc2ccccc12	-2	0	3	i	17	-6	·	-4
Cc1ccc(SCCC(=O)N2CCN(S(=O)(=O)c3ccccc3)CC2)cc1	-4	-2	5	·	·	·	4	·
CC(=O)Nc1ccc(NS(=O)(=O)c2ccc(CN3C(=O)c4cccnc4C3=O)cc2)cc1	-3	5	-3	i	-6	-6	-14	-14
O=S(=O)(c1ccccc1)N1CCN(C(=S)NC2CCCC2)CC1	1	3	-6	i	12	-2	-17	-2
O=C1/C(=C\c2cccnc2)SC(=S)N1c1ccc(F)cc1	2	-2	-11	i	-2	3	-2	·
CC(/C=N\NC(=O)c1ccc2c(c1)OCO2)c1ccccc1 (stereo unspecified)	0	3	-18	i	4	-7	-21	-5
CC1=C(C(=O)N(C(C)C)C(C)C)CC(CC(=O)NC(c2ccccc2)c2ccccc2)C(=O)N1Cc1ccc(C(C)(C)C)cc1 (stereo unspecified)	-20	-30	-24	·	·	·	-22	·
CCCCN(CCCNC(=O)c1ccc2nc(N3CCOCC3)sc2c1)Cc1ccccc1	8	0	-11	i	5	6	·	1
Cc1cc(C)cc(NC(=O)CN2CCN(CCN=CC3=C(O)CC(C)(C)CC3=O)CC2)c1	4	10	·	i	8	-7	-1	-16
CCN(CC)CCn1c2c(c(SCC(=O)Nc3nc(C)cs3)nc1=O)CCC2	0	-1	-30	i	·	·	5	-9
CCCCCn1c(SCCN2CCOCC2)nc2c1c(=O)[nH]c(=O)n2C	-3	-4	-20	i	-2	-7	361*	1
CC(C)OC(=O)CCc1nc2ccccc2[nH]c1=O	4	10	4	i	0	-10	-16	8
COCCC(C(=O)Oc1c(C(C)(C)C)cc(C)cc1C(C)(C)C)c1ccccc1 (stereo unspecified)	-3	-1	-2	·	·	·	-11	25
CN(c1ccc(-c2csc(NC(=O)CCCc3nc4ccccc4c(=O)[nH]3)n2)cc1)S(C)(=O)=O	-1	-13	5	·	·	·	-3	·
O=c1cc(O)n(Cc2ccc(F)cc2)c(=O)[nH]1	-8	3	18	i	2	34	21	-3
Cc1onc(-c2ccccc2Cl)c1C(=O)OCN1C(=O)c2ccccc2C1=O	2	3	·	i	-6	-14	0	·
C#Cc1ccc([C@@H]2C=C(C(=O)O)O[C@H](OCC)[C@H]2CCCO)cc1	-1	4	13	i	·	·	-1	-10
Cc1c(C)[n+](=O)c2c(n1[O-])C(Br)CCC2Br (stereo unspecified)	-1	0	-2	i	-2	-7	·	-7
COc1ccc(N2CCN(Cc3oc(CO)cc(=O)c3O)CC2)cc1	-2	-1	-37	i	-8	-2	-3	-3
Further records follow.
SMILES	MT1-MMP act inh	MT1-MMP act inh RFP	HIV Env fusion	Rce1 inh	PABP FP inh	eIF4H inh	Yeast UUG start	CSC inhib
CCCCN1C(=O)/C(=C2/Sc3ccccc3N2C)S/C1=N\c1ncn[nH]1	-10	-2	-24	i	?	?	·	37
CC(CN1C(C)CCCC1C)OC(=O)c1ccccc1Cl (stereo unspecified)	3	3	-1	i	-7	5	6	-9
N#Cc1cccc(NC(=O)COC(=O)c2cccc(N3C(=O)c4ccccc4C3=O)c2)c1	4	3	-16	i	0	3	·	-3
CN(CC(=O)Nc1cccc(F)c1)C(=O)c1cn(-c2ccccc2)nc1-c1ccc(Cl)cc1	2	-5	24	·	·	·	4	102*
O=c1[nH]cnc2c1c(-c1ccccc1)cn2-c1ccc(Br)cc1	-4	-1	-8	i	-6	1	·	23
CC1CN(C(=O)COC(=O)c2cc(Cl)ccc2[N+](=O)[O-])CC(C)O1 (stereo unspecified)	-1	1	-4	i	-3	-7	-15	-4
Cc1ccccc1NC(=S)N(C)Cc1cccs1	6	4	·	i	-2	-8	-16	-4
COc1ccc2c(c1)OC1=C(C(=O)CCC1)C2C1=C(O)CCCC1=O (stereo unspecified)	0	7	·	i	-4	-1	5	-13

Source: PubChem
